AF4-AF9 inh = blocks AF4 peptide binding to human AF9; P42568; AlphaScreen, biotin-AF4 peptide binding to FLAG-AF9; inhibition, % at 10 µM; 0.47% of 350,000 active; AID 651704;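 active = every replicate reaching a set inhibition limit, whatever the replicate mean, cut at about 25% in these data; inconclusive = mean inhibition reaches that limit but some replicates miss it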;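 note: 0% = plate neutral control median and 100% = total signal loss; the record names both 10 and 1 µM as test concentration; the first replicate is given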
Target sequence (P42568 whole entry, looked up): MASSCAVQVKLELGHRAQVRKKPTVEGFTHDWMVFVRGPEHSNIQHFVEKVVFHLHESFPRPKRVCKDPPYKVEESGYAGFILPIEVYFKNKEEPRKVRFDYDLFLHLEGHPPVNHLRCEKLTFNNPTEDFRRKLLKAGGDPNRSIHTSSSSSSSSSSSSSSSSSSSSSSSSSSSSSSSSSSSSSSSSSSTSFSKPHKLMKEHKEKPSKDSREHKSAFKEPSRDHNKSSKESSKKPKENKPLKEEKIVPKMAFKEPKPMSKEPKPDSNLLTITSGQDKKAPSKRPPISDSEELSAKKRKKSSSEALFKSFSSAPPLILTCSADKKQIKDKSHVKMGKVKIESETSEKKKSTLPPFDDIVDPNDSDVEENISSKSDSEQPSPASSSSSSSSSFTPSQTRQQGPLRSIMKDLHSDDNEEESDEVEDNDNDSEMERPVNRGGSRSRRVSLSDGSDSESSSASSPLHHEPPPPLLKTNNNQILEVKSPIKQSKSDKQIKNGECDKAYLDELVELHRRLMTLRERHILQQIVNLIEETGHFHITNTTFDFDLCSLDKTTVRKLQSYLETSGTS
FGF22 binding = FGF22 (human) thermal shift binding; Q9HCT0; recombinant FGF22 thermal shift, SYPRO orange fluorescence; percent of sucrose octasulfate shift, DMSO zero; calls only at 9.99 µM; 1.5% of 340,000 active; AID 651658;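 active = melting point raised past a set limit in the mean and every replicate; inconclusive = no clear call; three in four hits are not shown here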
Target sequence (Q9HCT0 whole entry, looked up): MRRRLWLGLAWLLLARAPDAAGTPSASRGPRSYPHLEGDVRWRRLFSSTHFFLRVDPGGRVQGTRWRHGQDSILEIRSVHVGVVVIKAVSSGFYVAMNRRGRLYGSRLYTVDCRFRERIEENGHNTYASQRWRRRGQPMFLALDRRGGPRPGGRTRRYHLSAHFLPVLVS
Vif TR-FRET = inhibitors of Vif binding to APOBEC3G peptide, primary screen, biochemical, TR-FRET, GST-Vif 1-94, biotin-A3G peptide, dose response retest (AID 1117319) | TR-FRET GST-Vif / biotin-A3G peptide binding; higher % means a stronger effect; test concentration not given here; strong numbers were not always called active | inhibition, %, or IC50 in µM where a hit was titrated | 0.57% of 260,000 active;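 active = above the screen mean plus three standard deviations and confirmed in dose response; inconclusive = results disagree or hit not tested in dose response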;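 note: Vif residues 1-94 fused to GST binding biotinylated APOBEC3G peptide 110-148; 0% = full assay without inhibitor and 100% = GST in place of GST-Vif; retest series ran down from 100 µM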
HNF4A DNA FP = change in binding of human HNF4 alpha to DNA; P41235; activity change, % at 10 µM; AID 1224865; 0.3% of 360,000 active; HNF4a-FITC DNA binding, fluorescence polarization, 1 h; in the data active = activity change above about 30%, passing the limit was not always enough;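 note: controls were the assay level and a saturating level of protein; the project sought stronger binding though the title names inhibitors; some compounds called inactive have numbers as strong as hits; positive values seem to mean higher polarization but the record does not say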
ALR inh = inhibitors of human sulfhydryl oxidase ALR. P55789. purified ALR, DTT oxidation, H2O2 HRP-luminol luminescence. inhibition, % (no concentration beside the values). 3.8% of 290,000 active. AID 485317;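 active = mean and each replicate at 75% or more; inconclusive = only one of the two met; inactive = neither met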;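 note: stock transfer was 7.5 nL into about 7.5 µL; 0% = neutral wells and 100% = wells with inactivated enzyme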
Target sequence (P55789 whole entry, looked up): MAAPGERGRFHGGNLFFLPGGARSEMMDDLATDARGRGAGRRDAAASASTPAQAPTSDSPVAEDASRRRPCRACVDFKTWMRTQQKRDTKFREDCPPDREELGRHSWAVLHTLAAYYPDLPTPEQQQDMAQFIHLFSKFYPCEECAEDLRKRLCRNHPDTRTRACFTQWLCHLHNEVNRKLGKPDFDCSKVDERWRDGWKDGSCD
Ecoli growth = inhibitors of Escherichia coli growth. OD600, 23 h; active compounds read low. OD600 absorbance (no concentration beside the values). 0.21% of 330,000 active;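 active = OD600 absorbance below the run mean of sample wells minus 3.6 SD, in any replicate, cut at about 0.56 in these data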;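 note: stock transfer was 300 nL into about 60 µL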
Ecoli rRNA inh = inhibits bacterial ribosomal RNA function over humanized ribosomes; E. coli WT GFP vs humanized-ribosome RFP mutants, fluorescence, 24 h; active compounds read low; DMSO median 0, no signal -100; GFP signal change (wild-type ribosome), % (no concentration beside the values); 1.6% of 350,000 active; AID 720706;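 active = significant combined selectivity score with lowered wild-type GFP, culture density cut under 30%, mutant RFP and density less affected; inactive = any of these conditions unmet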; note: one replicate is shown; some compounds called inactive have numbers as strong as hits
Ecoli rRNA inh OD600 = second read-out of Ecoli rRNA inh, no call of its own (marks repeat the call); OD600 change, %; measured here: OD600 growth;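 optical density of the mix in the first replicate; 0 = DMSO median and -100 = no signal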
Ecoli rRNA inh RFP = second read-out of Ecoli rRNA inh, no call of its own (marks repeat the call); RFP signal change, %; measured here: RFP humanized mutant strains;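 first replicate; 0 = DMSO median and -100 = no signal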
Starred values were filed as active, the others as inactive; i = inactive; ? = inconclusive; . = not tested or not shown. Some of the compounds tested, so the mix of outcomes need not match the whole.

SMILES	AF4-AF9 inh	FGF22 binding	Vif TR-FRET	HNF4A DNA FP	ALR inh	Ecoli growth	Ecoli rRNA inh	Ecoli rRNA inh OD600	Ecoli rRNA inh RFP
Cc1ccc(S(=O)(=O)N(C)C[C@@H]2Oc3ncc(-c4cccc(F)c4)cc3C(=O)N([C@H](C)CO)C[C@@H]2C)cc1	1.1	i	.	.	.	.	-5	-6	3.6
COCCCNC(=O)C1CCC(CNS(=O)(=O)c2ccc(C)cc2)CC1 (centres undefined)	.	.	-7%	.	-4	0.72	.	.	.
O=C(CCC1CCCN(C(=O)c2cncs2)C1)NCc1ccc(F)c(F)c1 (centres undefined)	-15	i	?	0.2	-5	0.7	5	-2	-4.8
CC(C)Cn1c(SCC(=O)Nc2ccc3[nH]c(=O)[nH]c3c2)nc2ccccc2c1=O	-0.7	i	1%	1.3	47	0.64	-18	-35	-8.7
O=S(=O)(NCc1cccnc1)c1ccc(Br)s1	.	.	1%	0.0	-2	0.69	.	.	.
Cc1cc(N2CCN(c3ccccc3)CC2)nc2ccccc12	-0.3	i	.	1.4	18	0.69	0	-6	-0.5
NC(=O)CC(NC(=O)c1cccc(Br)c1)c1ccc(N2CCN(c3ccccn3)CC2)c([N+](=O)[O-])c1 (centres undefined)	.	.	.	4.1	-6	0.69	.	.	.
CC(C)CNC(=S)NNC(=O)c1ccc(OC(F)F)cc1	.	.	-1%	0.1	4	0.67	.	.	.
C=CCN1C(=NC(=O)CCCC(=O)O)SC2CS(=O)(=O)CC21 (centres undefined)	.	.	-2%	3.9	-3	0.78	.	.	.
Cc1noc(C)c1NC(=O)N(C)C[C@@H]1OCCCC[C@H](C)Oc2ccc(N(C)C)cc2C(=O)N([C@H](C)CO)C[C@@H]1C	0.9	i	.	.	.	.	2	1	-2.7
C=CCOc1ccc(C2N3CC4(CC)CN2CC(CC)(C3)C4=O)cc1 (centres undefined)	.	.	-4%	0.4	-15	0.7	.	.	.
O=C(C[C@@H]1CC[C@@H]2[C@H](COC[C@@H](O)CN2Cc2cc(F)cc(F)c2)O1)NCc1cccc(F)c1	-2.1	i	.	.	.	.	-7	-4	0.0
O=[N+]([O-])c1ccc(/C=C/c2nc3ccc([N+](=O)[O-])cc3[nH]2)cc1	5.7	i	.	-1.1	-3	0.7	5	6	0.6
Cc1ccc(-c2c(C#N)c(N)n(-c3ccc(C)cc3)c(=O)c2C#N)cc1	.	.	3%	0.0	-10	0.79	.	.	.
O=C(Nc1cc2c(cc1Br)OCCCO2)c1ccccc1	.	.	.	-2.4	1	0.61	.	.	.
CCOC(=O)c1sc(=S)n(-c2ccccc2)c1SC	.	.	-12%	4.7	1	0.73	.	.	.
COc1ccc(NC(=O)N(C)C[C@@H]2Oc3ncc(C#CCN(C)C)cc3C(=O)N([C@@H](C)CO)C[C@@H]2C)cc1	-2.8	i	.	.	.	.	4	3	-0.2
FC(F)(F)c1cccc(CN2CCSCC2)c1	4.3	i	.	-1.1	.	0.71	8	5	2.3
CCS(=O)CC(=O)Nc1c(-c2ccccc2)oc2ccccc2c1=O (centres undefined)	.	i	-8%	-0.8	3	0.65	14	2	-2.9
COc1ccc(S(=O)(=O)N(C)C[C@H]2Oc3ccc(NS(=O)(=O)c4ccccc4)cc3CC(=O)N([C@H](C)CO)C[C@H]2C)cc1	0.6	i	.	.	.	.	-1	-2	-0.4
Cc1ccc(NC(=O)c2cc(S(=O)(=O)N3CCOCC3)ccc2Cl)cc1S(=O)(=O)N1CCOCC1	2.5	i	.	-0.1	.	0.69	-3	-5	0.4
CC(C)NC(=O)c1ccc(C2SCC(=O)N2Cc2ccccc2)cc1 (centres undefined)	3.5	i	-2%	-0.8	.	0.65	-1	-4	-5.4
O=C(c1cccc2ccccc12)C1CCCN(C(=O)C2CCOCC2)C1 (centres undefined)	3.8	i	3%	3.8	.	0.66	0	-6	-4.3
COc1ccc2c3c([nH]c2c1)[C@H](CO)N(C(=O)c1ccccc1)CC31CN(C(=O)CC2CC2)C1	-3.5	i	.	.	.	.	-2	-4	-3.8
CCN(CC(=O)NCc1cccs1)C(=O)COc1ccccc1C#N	-3.2	i	-9%	1.6	-2	0.67	7	8	-2.7
CC(C)Nc1ncnc2c1ncn2[C@H]1CN(Cc2ccc(Cl)cc2)C[C@@H](CO)O1	-3.8	i	.	2.3	.	.	3	2	5.2
N#C[C@@H]1[C@H](c2ccccc2-c2ccccc2F)[C@@H](CO)N1C(=O)Cc1ccccc1	-0.8	i	.	.	.	.	-28	-51	-6.2
CN(C)CCOC(=O)C12CC3(C)CC(C)(CC(C)(C3)C1)C2	7.1	i	13%	-0.9	-1	0.66	2	7	-5.1
COc1ccc(S(=O)(=O)N(C)C[C@@H]2OCCCC[C@@H](C)Oc3ccc(NS(=O)(=O)c4c(C)noc4C)cc3C(=O)N([C@H](C)CO)C[C@H]2C)cc1	-0.6	i	.	.	.	.	0	-2	1.2
CN(CCC#N)S(=O)(=O)c1ccc2[nH]cc(C(=O)NCCc3ccccc3)c(=O)c2c1	-12	i	-31%	1.3	-7	0.67	0	21	0.5
O=C1c2cccc(OCC(=O)N3N=C(c4cccs4)CC3c3ccc(F)cc3)c2CCN1Cc1ccccc1 (centres undefined)	-1.0	i	.	2.2	.	0.7	21	18	-0.9
Nc1sccc1C(=O)c1ccccc1	.	.	12%	.	98*	0.69	.	.	.
CCc1nc2ccc(C)cc2c(C(=O)Oc2cccc3cccnc23)c1C	.	.	1%	-1.3	-11	0.75	1	10	-1.7
CCC(C)NC(=O)c1ccccc1-c1nc2ccccc2[nH]1 (centres undefined)	-11	i	0%	-2.2	-6	0.7	1	-1	-2.4
Cc1ccccc1NC(=O)c1ccc(S(=O)(=O)C(F)F)cc1	-4.9	i	-1%	3.0	.	0.73	-7	-6	-5.0
CCC(=O)N1C[C@@H](C)[C@H](OC)CN(C)C(=O)c2cc(NC(=O)c3ccc(F)cc3)ccc2OC[C@@H]1C	-1.8	i	.	.	.	.	2	4	-1.7

Copied from the list.
Result of `FC(F)(F)c1cccc(CN2CCSCC2)c1` in HNF4A DNA FP: -1.1
Result of `O=S(=O)(NCc1cccnc1)c1ccc(Br)s1` in Ecoli growth: 0.69
Result of `CN(C)CCOC(=O)C12CC3(C)CC(C)(CC(C)(C3)C1)C2` in AF4-AF9 inh: 7.1
Result of `Nc1sccc1C(=O)c1ccccc1` in Vif TR-FRET: 12%
Result of `O=C(CCC1CCCN(C(=O)c2cncs2)C1)NCc1ccc(F)c(F)c1` (centres undefined) in HNF4A DNA FP: 0.2

Gathered by group, those above containing an aryl thioether with sulfur outside any ring (two)
SMILES	AF4-AF9 inh	FGF22 binding	Vif TR-FRET	HNF4A DNA FP	ALR inh	Ecoli growth	Ecoli rRNA inh	Ecoli rRNA inh OD600	Ecoli rRNA inh RFP
CC(C)Cn1c(SCC(=O)Nc2ccc3[nH]c(=O)[nH]c3c2)nc2ccccc2c1=O	-0.7	i	1%	1.3	47	0.64	-18	-35	-8.7
CCOC(=O)c1sc(=S)n(-c2ccccc2)c1SC	.	.	-12%	4.7	1	0.73	.	.	.

(further entries)
SMILES	AF4-AF9 inh	FGF22 binding	Vif TR-FRET	HNF4A DNA FP	ALR inh	Ecoli growth	Ecoli rRNA inh	Ecoli rRNA inh OD600	Ecoli rRNA inh RFP
COc1ccc(C(CNC(=O)C(=O)Nc2ccc3c(c2)OCO3)N2CCN(C)CC2)cc1 (centres undefined)	-12	i	-6%	2.2	8	0.72	2	3	-6.0
O=C(CC[C@H]1O[C@@H](n2ccc(=O)[nH]c2=O)[C@H](O)[C@@H]1O)NCc1cccc2ccccc12	-4.6	i	.	-1.2	.	.	.	.	.
COc1cccc(-c2noc(C3CCCN(C(=O)Cc4ccccc4)C3)n2)c1 (centres undefined)	.	.	-2%	0.0	-8	0.71	.	.	.
O=C(Nc1cccc(Cl)c1)OCc1ccccn1	.	.	-5%	8.5	.	0.7	.	.	.
COc1ccc(-c2noc(-c3ccc(Cl)cc3[N+](=O)[O-])n2)cc1OC	1.5	i	-6%	-0.5	.	0.72	3	14	-5.0
Clc1ccc(OCCN2CCCCC2)cc1Cl	.	.	20%	-4.2	-8	0.71	.	.	.
O=S(CC(O)c1ccccc1)c1ccccc1 (centres undefined)	-10	i	.	2.0	.	.	-1	3	3.2
COC(=O)[C@@H](Cc1ccccc1)NC(=O)CC[C@H]1O[C@@H](n2cc(C)c(=O)[nH]c2=O)C[C@@H]1O	-3.6	i	.	-0.8	.	.	5	5	0.4
CCCNC(=O)Nc1ccc2c(c1)OC[C@H](C)N(C(=O)C1CCOCC1)C[C@H](C)[C@@H](OC)CN(C)C2=O	-0.6	i	.	.	.	.	0	-3	1.2
C[C@H]1CN([C@@H](C)CO)C(=O)Cc2cc(NC(=O)NC3CCCCC3)ccc2O[C@H]1CN(C)C(=O)Nc1ccc(C(F)(F)F)cc1	-5.3	i	.	.	.	.	-1	-10	3.3
CO[C@@H]1CN(C)C(=O)c2cc(NC(=O)C3CCCC3)ccc2OC[C@H](C)N(CCC(F)(F)F)C[C@@H]1C	1.2	i	.	.	.	.	-2	-6	3.2
O=C(NCCCN1CCCCC1)c1ccc2c(c1)NC(=O)C(N1CCCCC1)S2 (centres undefined)	.	.	9%	0.9	-2	0.72	.	.	.
O=C(O)Cn1cnc2ccccc2c1=O	.	.	0%	-0.6	-2	0.74	10	0	-0.9
Cn1c(=O)[nH]c(=O)c2c1nc(NC1CCCC1)n2Cc1ccccc1	2.5	i	-4%	4.4	39	0.63	7	-5	0.7
COc1ccc(COc2cc(-c3cccc(OC)c3)nc3ccc(NC(=O)c4ccccc4)cc23)cc1	4.3	i	0%	-2.4	0	0.75	12	17	7.0
CC(=O)COc1ccc(-c2csnn2)cc1	-1.2	i	0%	1.0	-9	0.68	-3	-1	0.3
Cc1ccc(S(=O)(=O)N[C@H]2C=C[C@@H](CC(=O)NCCCN(C)C)O[C@@H]2CO)cc1	-0.6	i	.	.	.	.	3	7	-0.1
CCN(CC)CCNC(=O)C(C)c1nn(C)c(=O)c2ccccc12 (centres undefined)	.	.	-3%	-2.1	-1	0.76	.	.	.
O=C1c2ccccc2S(=O)(=O)N1CC(O)Cn1c2ccccc2c2ccccc21 (centres undefined)	.	.	23%	-2.0	12	0.72	-20	-19	-6.5
COc1ccc(CC(NC(C)=O)C(=O)N2CCN(C(=O)Nc3ccc(Cl)cc3)CC2)cc1OC (centres undefined)	.	.	?	-0.5	.	0.68	.	.	.
CCCn1c(N)c(C(=O)CSc2nc(C)cs2)c(=O)[nH]c1=O	.	.	7%	1.1	-12	0.69	.	.	.
CCN(CC)CCn1c2c(c(SCC(=O)Nc3ccc(C(C)C)cc3)nc1=O)CCCC2	6.7	.	2%	-0.9	1	0.64	6	1	0.6
Cc1cc2c(=O)[nH]cnc2s1	.	.	-1%	0.7	-3	0.7	.	.	.
CC1(C(=O)NS(=O)(=O)c2cccc(C#N)c2)CCN1C(=O)C1(c2ccccc2)CC1 (centres undefined)	-6.4	i	.	-3.7	.	.	1	9	-0.2

Assay outcomes: PubChem BioAssay, several laboratories
